Screening data from PubChem BioAssay.
HTT prom inh = inhibits huntingtin promoter activity. HEK293 HTT promoter firefly luciferase reporter (activity 0% = vehicle and -100% = no light), 24 h. Potency, µM (series often up to 57.5 µM), for inactives: at the top dose activity change, negative = inhibition, most hits filed as inhibitors. actives 0.93% (n = 48,000). AID 1508623; active = well fitted inhibition curve with a large enough effect; inconclusive = small, poorly fitted or top-dose-only effect; inactive = no such curve, though single readings can be large or run the other way; also: nearly all actives have a fitted effect of over 50% in size
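Firefly luciferase readout (Dual-Glo, 10 min RT) after 24 h, 37 °C compound exposure (final up to 57.5 uM) of HEK293 reporter cells cultured 24 h beforehand; PTC124 at 50 uM final as control inhibitor; activity scaled vehicle 0%, zero RLU -100%.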
PMP22 txn prim = PMP22 gene transcription modulation. S16 Pmp22-F2sN Schwann cells (luciferase reporters placed in the Pmp22 gene), FLuc/NLuc coincidence luminescence, 24 h. Potency, µM (titrated, usually from 57.5 µM), without a hit: top-dose activity change, negative = inhibition, usual class: inhibitors. actives 2% (n = 43,000); active = clear falling dose curves in both reporters; inconclusive = both reporters move, but less clearly or upward; inactive = either reporter flat; the % is the NLuc reporter signal; also: % is scaled to controls: 0 for no effect and ±100 for the full control effect; some results filed as inactive show a strong effect at the top dose
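Schwann cells carrying the coincidence reporter were exposed to library compounds for 24 h at 37C, then lysed and read for FLuc and, after quenching, NLuc luminescence on a CCD imager.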
* marks the source's active call; other numbers are inactive results; & = joins results of further samples; [ ] = dose if it differs, or a comment. Potency is read from the fitted curve at half-maximal effect.

For Cc1ccc(CNC(=O)c2ccc(Cn3c(=O)c4ccccc4n(CC(=O)Nc4ccc(C)cc4)c3=O)cc2)cc1 the results were HTT prom inh -8.8% and PMP22 txn prim inconclusive.
`CCOC(=O)c1ccc(NC(=O)c2nc(SC(C)C)ncc2Cl)cc1` gave HTT prom inh -28.8% and PMP22 txn prim inconclusive.
`CN(CCOc1ccc(CC2SC(=O)NC2=O)cc1)c1ccccn1` (stereo unspecified) gave HTT prom inh 1.4%&13.7%.
COc1ccc(-c2cc(C(F)(F)F)nc(SCC(=O)Nc3ccc(C(C)=O)cc3)n2)cc1 was read as HTT prom inh inconclusive and PMP22 txn prim inconclusive.
Screening CCCNC(=O)c1ccc(Cn2c(SCC(=O)NC(C)C)nc3ccccc3c2=O)cc1 returned HTT prom inh -1.6% and PMP22 txn prim inconclusive.
For NC1CCC(Nc2nc(Nc3ccc(C(=O)N4CCCCC4)cc3)c3ncn(-c4cccc(F)c4)c3n2)CC1 (stereo unspecified) the results were HTT prom inh 4.1%.
O=C(NC1CCCC1)c1ccc(CSc2nc3ccncc3n2Cc2cccc(F)c2)cc1 was read as HTT prom inh inconclusive and PMP22 txn prim inconclusive.
For COc1ccc(CNCc2c(C(=O)O)c(C)n(Cc3ccccc3C)c2C)c(OC)c1 the results were HTT prom inh -15.6% and PMP22 txn prim -7.3%.
`Cc1cc(C)n(-c2nnc(Nc3ccc(C(C)C)cc3)c3ccccc23)n1` gave HTT prom inh -30.7% and PMP22 txn prim 31.1%.
O=C1CC(c2ccc(Cl)cc2)c2cc3c(cc2N1)OCCO3 (stereo unspecified) was read as HTT prom inh inconclusive and PMP22 txn prim inconclusive.
`O=C(COc1ccccc1Cl)OCc1cc(=O)n2nc(-c3cccs3)sc2n1` gave HTT prom inh -20.6% and PMP22 txn prim -16.8%.
For CCc1nonc1NC(=O)c1oc2ccc(Br)cc2c1C the results were HTT prom inh -0.7% and PMP22 txn prim 4.2%.
`C[C@]12CC[C@@H]3c4ccc(O)cc4C[C@@H](CCCCCCCCCS(=O)CCCC(F)(F)C(F)(F)F)[C@H]3[C@@H]1CC[C@@H]2O` (stereo partly specified) gave HTT prom inh -3.3%.
Screening CCc1nc(C)cn1S(=O)(=O)c1ccc(Cl)c(Cl)c1OC returned HTT prom inh 12.6µM* and PMP22 txn prim inconclusive.
Cc1cccc(C)c1NC(=O)CN1C(=O)c2ccccc2Sc2ncccc21 was read as HTT prom inh -6.7% and PMP22 txn prim -17.7%.
Screening CCOc1ccc(C(=O)NCc2nc(-c3ccc(Cl)cc3)no2)cc1OCC returned HTT prom inh 4.7% and PMP22 txn prim inconclusive.
Screening Cc1cccc(CCn2c(=O)c3ccccc3n(Cc3cccc(F)c3)c2=O)c1 returned HTT prom inh 8.7% and PMP22 txn prim -22.3%.
For Cc1ccc(C(=O)N2CCCCC2)cc1NC(=O)c1nsc2ccccc12 the results were HTT prom inh inconclusive and PMP22 txn prim -13.9%.
CCOc1ccc(OCC)c(Nc2nc3ccc(C(=O)c4ccccc4)cc3n3cnnc23)c1 was read as HTT prom inh 0.3% and PMP22 txn prim -26.3%.
`Cc1ccc(S(=O)(=O)c2nc(S(=O)(=O)c3ccc(C)cc3)c(NCCCOC(C)C)s2)cc1` gave HTT prom inh -20.3% and PMP22 txn prim -13.3%.
`Cc1ccc(-n2c(=O)c3ccc(C(=O)NCc4ccco4)cc3n(Cc3ccccc3Cl)c2=O)cc1` gave HTT prom inh -11.6% and PMP22 txn prim -14.8%.
Screening COc1ccc(CN(C(=O)Cc2coc3ccc(C)cc23)C2CCS(=O)(=O)C2)cc1 (stereo unspecified) returned HTT prom inh -8.1% and PMP22 txn prim -16.6%.
Cc1ccc(-c2nnc(SCC(=O)NC(C)(C)C)nc2-c2ccc(C)cc2)cc1 was read as HTT prom inh -13.8% and PMP22 txn prim -10.9%.
`CCC(C(=O)Nc1cc(C)ccc1OC)n1nnc(C(=O)OC)c1C(=O)OC` (stereo unspecified) gave HTT prom inh 15.6% and PMP22 txn prim -11.7%.
For COc1ccc(CNC(=O)c2ccc(-c3nc(CSc4ccc(C)cc4)c(C)o3)cc2)cc1OC the results were HTT prom inh -25.5% and PMP22 txn prim -12.5%.
`CCN(c1cc(C)cc(C)c1)S(=O)(=O)c1nnc(NC(=O)c2ccccc2C)s1` gave HTT prom inh inconclusive and PMP22 txn prim inconclusive.
Screening CCOc1ccc(S(=O)(=O)Nc2ccc3oc(C)c(C(=O)OC(C)C)c3c2)cc1 returned HTT prom inh inconclusive and PMP22 txn prim inconclusive.
For Cc1cc(C)c2oc(-c3cccc(NC(=O)c4cc5ccccc5o4)c3)nc2c1 the results were HTT prom inh -10.4%[11.5 µM] and PMP22 txn prim -8.6%.
Screening Cc1ccc(NC(=O)c2cc3c(=O)[nH]c4ccccc4c3n2C)cc1F returned HTT prom inh 0.2% and PMP22 txn prim -7.6%.
For CCc1ccc(CNC(=O)c2ccc3c(c2)nc2n3CCCCC2)cc1 the results were HTT prom inh 62.4%[activator] and PMP22 txn prim -14.2%.
Screening CCOC(=O)c1cccc(NC(=O)C2=C(C)C(=O)OC23CCCCC3)c1 returned HTT prom inh -9.8% and PMP22 txn prim -24.0%.
O=C(NCc1ccccc1)c1ccc2c(c1)CCN2S(=O)(=O)c1ccccc1 was read as HTT prom inh -35.4% and PMP22 txn prim inconclusive.
Cc1ccc(S(=O)(=O)c2nc(-c3ccco3)oc2SC(C)C)cc1 was read as HTT prom inh -27.4% and PMP22 txn prim -35.6%.
Screening CC(=O)N1CCCc2cc(S(=O)(=O)NCc3ccc(OC(C)C)cc3)ccc21 returned HTT prom inh inconclusive and PMP22 txn prim -47.2%.
For COc1ccc(-n2ncc(C(=O)N3CCN(c4ncccn4)CC3)c2C2CCN(C(=O)OC(C)(C)C)CC2)cc1 the results were HTT prom inh 1.1% and PMP22 txn prim 0.3%.
COc1ccc(Cl)cc1NC(=O)CSc1nnc2[nH]c(=O)cc(-c3ccccc3)n12 was read as HTT prom inh 20.6% and PMP22 txn prim inconclusive.
For CSc1nc(=O)c2c(n1C)NC(=O)CC2c1cc(F)cc(F)c1 (stereo unspecified) the results were HTT prom inh -11.4% and PMP22 txn prim 45.0%.
`COc1cccc(NC(=O)c2cn(C3CCCCC3)c(=O)c3c2c2ccccc2n3C)c1` gave HTT prom inh -16.2% and PMP22 txn prim -28.2%.
For CCOC(=O)c1c(C)oc2nc(C)nc(Nc3ccc(CC)cc3)c12 the results were HTT prom inh -7.4% and PMP22 txn prim -0.1%.
`CC(C(=O)O)c1cccc(C(=O)c2ccccc2)c1` (stereo unspecified) gave HTT prom inh -17.9%&-5.9%.
Cc1c(CCNC(=O)c2ccc(Br)o2)sc2nc(-c3ccc(Cl)cc3)nn12 was read as HTT prom inh -8.3% and PMP22 txn prim -20.8%.
COc1ccccc1CCNC(=O)C(=O)NCC(c1ccco1)S(=O)(=O)c1ccc(C)cc1 (stereo unspecified) was read as HTT prom inh inconclusive and PMP22 txn prim -15.4%.
COc1ccc(CCNC(=O)c2cc(Nc3cc(C)cc(C)c3)nc3ccccc23)cc1OC was read as HTT prom inh -19.6% and PMP22 txn prim inconclusive.
`CCc1cccc(NC(=O)c2ccc3c(c2)c(C)c(C)n3Cc2ccc(F)cc2)c1` gave HTT prom inh -27.3% and PMP22 txn prim inconclusive.
Screening Clc1ccccc1CSc1nc(NCCc2ccccc2)c2ccccc2n1 returned HTT prom inh -6.2% and PMP22 txn prim inconclusive.

Of the compounds above, these contain a COOH group:
For COc1ccc(CNCc2c(C(=O)O)c(C)n(Cc3ccccc3C)c2C)c(OC)c1 the results were HTT prom inh -15.6% and PMP22 txn prim -7.3%.
`CC(C(=O)O)c1cccc(C(=O)c2ccccc2)c1` (stereo unspecified) gave HTT prom inh -17.9%&-5.9%.

(list continues)
CC(=O)c1cccc(NC(=O)Cn2cnc3c2c(=O)n(C)c(=O)n3C)c1 was read as HTT prom inh -16.6% and PMP22 txn prim -38.0%.
Screening CCN1CCN(C(=O)Cn2ncc3c4ccccc4n(Cc4ccccc4)c3c2=O)CC1 returned HTT prom inh 4.0% and PMP22 txn prim -34.5%.
O=C(Nc1cccc(C(F)(F)F)c1)N1CCC(CN2CCCCCC2)CC1 was read as HTT prom inh -9.7% and PMP22 txn prim inconclusive.
For CCOc1ccccc1CNC(=O)c1ccc2c(c1)nc1n2CCCCC1 the results were HTT prom inh 29.4% and PMP22 txn prim inconclusive.
`CCc1nn(Cc2c(C)cc(C)cc2C)c(=O)c2cc3cc(C)ccc3n12` gave HTT prom inh -8.8% and PMP22 txn prim -6.9%.
Screening CCOc1ccc(NC(=O)CSc2nc3ccsc3c(=O)n2CC)cc1 returned HTT prom inh -27.7% and PMP22 txn prim -14.6%.
For CCn1c(=O)c2sccc2n2c(CCC(=O)Nc3cc(C)cc(C)c3)nnc12 the results were HTT prom inh -10.4% and PMP22 txn prim -7.2%.
Screening CCOC(=O)C1=C(CS(=O)(=O)c2ccc(OC)c(Cl)c2)NC(=O)NC1c1cccc(OC)c1 (stereo unspecified) returned HTT prom inh -9.9% and PMP22 txn prim -1.0%.
CC(=O)N1CCc2cc(S(=O)(=O)NC(Cc3ccccc3)C(=O)Nc3cccc(C)c3)ccc21 (stereo unspecified) was read as HTT prom inh -32.0% and PMP22 txn prim -25.9%.
CCn1c2ccccc2c2cc(CN3CCN(Cc4ccc(Br)cc4)CC3)ccc21 was read as HTT prom inh inconclusive and PMP22 txn prim -20.7%.
`CCOC(=O)c1c(-c2ccccc2)csc1NC(=O)c1cc(-c2cccc(OC)c2)on1` gave HTT prom inh -11.2% and PMP22 txn prim -0.4%.
Screening COc1ccccc1CNc1nc2c(S(=O)(=O)c3ccccc3)nnn2c2ccc(Cl)cc12 returned HTT prom inh 11.2% and PMP22 txn prim inconclusive.
For CCCNC(=O)C1CCC(Cn2c(=O)c3sccc3n(CC(=O)N3CCCC3)c2=O)CC1 (stereo unspecified) the results were HTT prom inh -5.1% and PMP22 txn prim -4.7%.
`CCCCOc1ccc(CN2C(=O)C(=O)c3cc(Br)cc(C)c32)cc1OC` gave HTT prom inh inconclusive and PMP22 txn prim 4.5µM*.
For COc1ccc(C2c3c(oc4ccccc4c3=O)C(=O)N2c2nc(C)c(C)s2)cc1 (stereo unspecified) the results were HTT prom inh -16.6%[11.5 µM] and PMP22 txn prim 42.7%.
`CCOc1ccc(NC(=O)c2nn(C)c3c2COc2ccccc2-3)cc1` gave HTT prom inh 5.2% and PMP22 txn prim -13.6%.
`Cc1ccc(C2=NN(CC(=O)NCCc3ccccc3)C(=O)CC2)cc1` gave HTT prom inh 11.9% and PMP22 txn prim 6.8%.
`CCCCCNS(=O)(=O)c1ccc(N2CCCCS2(=O)=O)cc1` gave HTT prom inh inconclusive and PMP22 txn prim inconclusive.
`COc1ccc(S(=O)(=O)Nc2ccc(-c3cn4c(C)csc4n3)cc2)cc1` gave HTT prom inh -16.1% and PMP22 txn prim inconclusive.
For COc1ccc(S(=O)(=O)N2CCN(CC(=O)Nc3ccc(Cl)c(C(F)(F)F)c3)CC2)cc1 the results were HTT prom inh inconclusive and PMP22 txn prim inconclusive.
Screening COc1ccc(C2CC(=O)N(Cc3ccccc3C)c3c2c(C)nn3-c2nc(C)cc(C)n2)c(OC)c1 (stereo unspecified) returned HTT prom inh -20.7% and PMP22 txn prim -6.4%.
Screening COc1ccc(-n2nnc(-c3nc(-c4cccs4)no3)c2N)cc1 returned HTT prom inh 72.8%[activator] and PMP22 txn prim 1.2%.
O=C(CSCc1ccc(F)cc1)N1CCc2c([nH]c3ccccc23)C1c1ccc(Cl)cc1 (stereo unspecified) was read as HTT prom inh inconclusive and PMP22 txn prim -17.9%.
COC(=O)c1cc(OC)c(OC)c(OC)c1NC(=O)c1cc(=O)n(C)c(=O)n1C was read as HTT prom inh 3.4% and PMP22 txn prim -10.5%.
O=c1c2ccccc2nc2sc(Nc3cccc(C(F)(F)F)c3)nn12 was read as HTT prom inh 20.9% and PMP22 txn prim -1.8%.
CCc1ccccc1Nc1nn2c(=O)c3ccc(C(=O)NCc4ccc(C)cc4)cc3nc2s1 was read as HTT prom inh inconclusive and PMP22 txn prim inconclusive.
Screening COC(=O)c1ccc(NC(=O)CN2C(=O)c3cccc4cccc2c34)cc1 returned HTT prom inh 4.1% and PMP22 txn prim -23.5%.
Screening COC(=O)c1cc2oc(C)cc2n1Cc1cc(C)ccc1C returned HTT prom inh -10.2% and PMP22 txn prim 12.2%.
CCc1ccc(NC(=O)Cn2c3ncccc3c(=O)n2-c2ccc(C)c(C)c2)cc1 was read as HTT prom inh -8.9% and PMP22 txn prim -3.9%.
Screening COc1ccc2c(c1)c1c(c(=O)n(CCc3ccccc3)c(=O)n1Cc1ccc(Cl)cc1)n2C returned HTT prom inh -14.4% and PMP22 txn prim 0.1%.

Retrieved one by one from the list above:
O=c1c2ccccc2nc2sc(Nc3cccc(C(F)(F)F)c3)nn12 was read as HTT prom inh 20.9% and PMP22 txn prim -1.8%.
Screening COc1ccc(-n2nnc(-c3nc(-c4cccs4)no3)c2N)cc1 returned HTT prom inh 72.8%[activator] and PMP22 txn prim 1.2%.
`CCCCCNS(=O)(=O)c1ccc(N2CCCCS2(=O)=O)cc1` gave HTT prom inh inconclusive and PMP22 txn prim inconclusive.
